High-throughput results (PubChem BioAssay)
PABP polyA inh: blocks human PABP binding to poly(A) RNA. P11940. fluorescence polarization. inhibition, % at 35 µM. hit rate 1% among 290,000;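 active = 50% or more with normal probe brightness, or confirmed in later tests; inconclusive = above 50% with abnormal brightness, or retests that disagree; inactive = below 50% or failed in later tests; about a fifth of its hits are not listed in these tables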;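 note: calls also rest on retests at 20 µM and on dose response follow-up; controls were probe without protein and protein plus probe with vehicle; some compounds called inactive have numbers as strong as hits; many hits fall short of the cut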
Target sequence (P11940 whole entry, looked up): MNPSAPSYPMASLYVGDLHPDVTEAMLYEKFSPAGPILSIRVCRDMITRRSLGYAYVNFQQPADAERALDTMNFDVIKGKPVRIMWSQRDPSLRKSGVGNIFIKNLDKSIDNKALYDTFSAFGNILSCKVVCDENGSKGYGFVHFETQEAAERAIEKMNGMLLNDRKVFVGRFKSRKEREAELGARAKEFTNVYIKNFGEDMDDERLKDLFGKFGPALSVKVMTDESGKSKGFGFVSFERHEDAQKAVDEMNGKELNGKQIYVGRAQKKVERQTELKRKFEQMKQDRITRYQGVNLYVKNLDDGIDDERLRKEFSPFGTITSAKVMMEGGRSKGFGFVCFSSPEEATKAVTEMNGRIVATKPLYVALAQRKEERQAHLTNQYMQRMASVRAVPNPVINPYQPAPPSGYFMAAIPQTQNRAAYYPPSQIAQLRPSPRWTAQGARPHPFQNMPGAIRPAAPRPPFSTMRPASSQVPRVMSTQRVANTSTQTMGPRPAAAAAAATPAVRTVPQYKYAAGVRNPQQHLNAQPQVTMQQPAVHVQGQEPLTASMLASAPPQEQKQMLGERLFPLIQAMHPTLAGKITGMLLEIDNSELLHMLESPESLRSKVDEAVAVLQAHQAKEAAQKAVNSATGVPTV
eIF4H inh: inhibitors of RNA binding by human eIF4H. eIF4H fluorescence polarization binding assay. inhibition, % at 35 µM. Q15056. hit rate 0.94% among 290,000;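 active = 50% or more with normal probe brightness, or confirmed in later tests; inconclusive = above 50% with abnormal brightness, or retests that disagree; inactive = below 50% or failed in later tests; about a fifth of its hits are not listed in these tables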;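 note: calls also rest on retests at 20 µM and on dose response follow-up; 0% = protein and probe with vehicle and 100% = probe without protein; strong numbers were not always called active; many hits fall short of the cut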
CSC inhib: blocks cancer stem cells; AID 2717; hit rate 1.1% among 300,000; inhibition, % at 7.5 µM; cancer stem cell-like cells viability, luminescence;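 active = mean at 75% or more and at least half the replicates too; inconclusive = mean and replicates disagree; tested in HMLE shEcad cells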;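 note: 0% = median of negative and 100% = median of positive control wells; the first replicate is given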
HIV Env fusion: blocks HIV Env-driven cell-cell fusion | inhibition, % at 12.3 µM | hit rate 1.1% among 360,000 | AID 651610 | HeLa-JRFL Env/CEM21 cell fusion, luciferase;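 active = mean replicate inhibition score of at least 50 and every replicate individually at or above 50; inconclusive = only one of the two criteria met; inactive = mean below 50 and not all replicates reaching 50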;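 note: 0% = plate neutral controls and 100% = maraviroc near 300 nM; one replicate is shown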
Yeast UUG start: modulators of start codon recognition fidelity in yeast. S. cerevisiae UUG-firefly luciferase reporter, luminescence/redox ratio. activity score, % at 18.7 µM. hit rate 0.13% among 350,000;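 active = replicate mean at a twofold rise or more, about +100% in these data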;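 note: firefly luciferase made from a UUG start codon reports start codon fidelity; reporter light over untreated wells divided by growth signal over untreated wells; some hits fall short of that in this replicate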
Rce1 inhib: inhibitors of yeast Ras-converting enzyme | hit rate 0.27% among 290,000 | AID 2563 | yeast membranes, quenched prenylated peptide cleavage fluorescence | calls only;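 active = fall in fluorescence gain of 50% or more versus controls, with final raw signal at or below 3038400; inconclusive = same 50% fall but final raw signal above 3038400; inactive = fall in fluorescence gain under 50%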;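 note: plate controls were neutral control wells for no effect and wells lacking membranes for full effect; tested at 10 µM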
MT1-MMP act inh: inhibitors of human MT1-MMP activation; HT1080 RFP-PRO-GFP cells, GFP/RFP ratio fluorescence, overnight; percent of plate control window, DMSO zero; GFP/RFP ratio change, % at 20 µM; hit rate 0.061% among 360,000; AID 651647;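 active = GFP/RFP ratio change of at least 30% with cell ATP level not reduced by more than half and red fluorescence within 50% of control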; note: strong numbers were not always called active
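Read-out: GFP/RFP fluorescence ratio; Test system: RFP-PRO-GFP reporter HT1080 cells; Compound dosing: single-point 20 µM compound, 1% DMSO; Times: overnight compound exposure at 37 °C.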
eIF4H inh retest: second read-out of eIF4H inh, no call of its own (marks repeat the call); inhibition, %; compound at 20 µM; confirmation average;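 mean of two retest wells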
PABP polyA inh retest: recorded beside PABP polyA inh, whose call it bears; inhibition, %; compound at 20 µM; confirmation repeats;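 mean of two retest wells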
MT1-MMP act inh RFP: second read-out of MT1-MMP act inh, no call of its own (marks repeat the call); RFP signal change, %; measured here: RFP expression control read;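 0 = vehicle wells; hits needed this value within 50% of zero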
The depositor's hits bear a star; i = inactive; ? = inconclusive; . = no result given. The list is partial; the hit share may differ from the screen's.

SMILES	PABP polyA inh	eIF4H inh	CSC inhib	HIV Env fusion	Yeast UUG start	Rce1 inhib	MT1-MMP act inh	MT1-MMP act inh RFP	others
O=P(O)(CCc1ccccc1)C(O)c1ccccc1 (configuration not stated)	11	-4	-4	.	-9	i	3	1
O=S1(=O)c2ccccc2Nc2ccccc21	19	4	-1	5	-19	i	4	3
CCn1c(SCCN2CCCCC2)nc2c1c(=O)n(C)c(=O)n2C	.	.	.	-1	-14	.	2	3
Cc1ccc(S(=O)(=O)c2nc(S(=O)(=O)CCO)sc2N2CCOCC2)cc1	.	.	-17	5	-7	i	-5	-6
NC(=O)c1sc2nccc(Nc3ccccc3)c2c1N	6	-8	-17	93*	-28	i	-18	-4
COC(=O)c1cc2n3ccccc3c(C)c(-c3ccccc3)c-2c1C(=O)OC	124*	130*	2	.	7	i	-51	8	eIF4H inh retest=66*;PABP polyA inh retest=97*
CC1=C(C#N)C(c2cccnc2)C2=C(CC(C)(C)CC2=O)N1 (configuration not stated)	-5	-4	.	.	3	i	3	3
O=C(Nc1ccc(S(=O)(=O)N2CCCCC2)cc1)C1CC1	3	5	-11	-8	.	i	2	-2
COc1cccc(CNC(=O)CCS(=O)(=O)c2cc3c(cc2C)NC(=O)CO3)c1	-7	11	7	-11	-11	i	1	4
Fc1ccc(Nc2nc(NCc3ccccc3)nc3ccsc23)cc1	.	.	.	12	-8	.	-14	-28
C/C(=N\NC(=O)COc1ccc2ccccc2c1)c1cccs1	0	-1	-5	-5	-5	i	2	3
CCS(=O)(=O)Nc1ccc(-c2ccc(NS(=O)(=O)CC)c(OC)c2)cc1OC	24	-8	-3	.	2	i	4	-9
COc1cc2[nH]c(=S)nc(NCc3ccc(Cl)cc3)c2cc1OC	2	1	24	34	-16	i	4	-4
Cc1cccc(C)c1C(O)c1ncc(-c2cccc3ccccc23)[nH]1 (configuration not stated)	.	.	.	-17	-21	.	-6	-2
Cc1ccc(CCNC(=O)c2cccc(N3CCCC3=O)c2)cc1	2	-13	-8	.	-12	i	-1	1
CNc1nc(SC)nc(N(C)C#N)n1	-11	-2	5	-32	.	i	2	5
CC(C)OC(=O)CSc1nnc(-c2ccc(Cl)cc2)n1N	2	-7	10	-8	11	i	7	6
CCc1noc(C)c1C(=O)N(CC)CC(=O)Nc1ccccc1C(F)(F)F	.	.	.	-1	-9	i	-2	3
O=C(COc1ccc(-c2nnco2)cc1)Nc1ccc(C(F)(F)F)cc1	.	.	1	55*	.	i	8	-4
COc1ccc(C(C)C)cc1S(=O)(=O)NCCCn1ccnc1	1	0	-15	-2	-15	i	5	-6
O=C(O)CSCCC(=O)Nc1ccc(F)cc1	-6	-7	-5	2	5	i	-4	1
CCCCn1c(CNC(=O)CCC)nc2ccccc21	3	-6	-10	-33	-16	i	-3	1
CC1CCN(C(=O)COC(=O)c2ccc3c(c2)C(=O)N(Cc2ccco2)C3=O)CC1	.	.	.	14	12	.	4	1
COc1ccc(Cc2noc(CN(C)CCc3ccccc3)n2)cc1OC	6	2	4	21	-5	i	9	0
Cc1cccc(C(=O)N2CCC(C)(C(=O)NS(=O)(=O)C3CC3)C2)c1C (configuration not stated)	.	.	.	19	-10	.	2	8
COC(=O)CC1SC(=O)NC1=Nc1ccc(C)cc1 (configuration not stated)	-3	4	.	-5	-8	i	-2	-2
CSc1oc(-c2ccco2)nc1S(=O)(=O)c1ccc(C)cc1	4	-1	-2	5	-9	i	-3	0
Cc1onc(-c2ccccc2)c1C(=O)NCc1cccs1	-1	-4	-6	-101	-19	i	-4	-3
CCOC(=O)Nc1nc(-c2ccccc2)c(C(=O)c2ccc(Cl)cc2)s1	-11	1	81*	.	-13	i	10	-4
COc1ccc2cc(C#N)c(SCC(=O)Nc3nonc3C)nc2c1	12	2	-2	-4	.	i	-24	-8
CCCN1/C(=C2/SC(=S)N(CC)C2=O)C=Cc2ccccc21	5	0	31	-426	-9	i	40*	-4.7*
COc1ccc(-c2csc3ncn(-c4ccccc4)c(=O)c23)cc1OC	-5	-4	-5	-7	.	i	-2	-5
O=C(NC1CCCC1)C(=O)N(Cc1cccnc1)C(C(=O)NCc1ccco1)c1ccccc1F (configuration not stated)	10	-8	-4	2	.	i	-4	3
COc1ccc(CCNC(=O)c2cccc([N+](=O)[O-])c2)cc1OC	.	.	-4	-125	.	i	4	2
CCc1ccc(C2=NN(CCC(=O)NCC3CCCO3)C(=O)CC2)cc1 (configuration not stated)	3	3	-9	-4	-14	i	-1	0
C=CCC(C=C)S(=O)(=O)c1ccc(C)cc1 (configuration not stated)	-4	-2	-2	-43	-12	i	-1	-2
O=C(Nc1ccc([N+](=O)[O-])cc1Cl)c1cccc([N+](=O)[O-])c1	.	.	.	-86	-2	.	4	1
CC(=O)Nc1cccc(OC(=O)c2ccoc2C)c1	21	-2	8	-5	-11	i	-2	5
Cc1ccc(S(=O)(=O)Nc2c(C)nn(C)c2C)cc1	6	0	11	.	-17	.	1	-1
Cc1ccsc1C(=O)NNC(=O)COc1ccccc1Cl	.	.	0	-19	-15	i	5	1
CCCN(CC(=O)Nc1cc(C)on1)S(=O)(=O)c1cccc(C(F)(F)F)c1	-12	-3	.	5	-13	i	9	-4
C=CCc1ccc(OCCCCN2CC(C)OC(C)C2)c(OC)c1 (configuration not stated)	0	4	16	-4	.	i	-1	-3
CC1=Nc2ccccc2NC(=O)C1Sc1nnc(C)s1 (configuration not stated)	-8	-6	-6	9	1	i	4	4
Cc1ccc(NC(=O)c2ccc(NCc3ccco3)c([N+](=O)[O-])c2)cc1Cl	-3	60	-22	.	-2	i	-24	1	eIF4H inh retest=6;PABP polyA inh retest=38
Cc1ccc(NC(=O)C2CC(O)CN2C(=O)OCc2ccccc2)c(C)c1 (configuration not stated)	18	3	.	-1	-16	i	0	4
Cc1ccc(-c2nnc(N3CCCCC3)c3ccccc23)cc1	4	-7	20	3	-11	i	-1	-4
O=C1CC(c2ccc(S(=O)(=O)Nc3cc(C(F)(F)F)cc(C(F)(F)F)c3)cc2)CN1 (configuration not stated)	-6	-8	3	16	-6	i	2	8
CC(C)CCC(CC(C)O)C(=O)NNC(=S)Nc1ccccc1 (configuration not stated)	-7	5	-12	-3	-24	.	3	5
O=C(CN1C(=O)c2ccccc2S1(=O)=O)Nc1ccc(S(=O)(=O)Nc2ncccn2)cc1	.	.	.	6	.	i	-4	4
O=[N+]([O-])c1ccc(C2CN=C(Nc3ccccc3)S2)cc1 (configuration not stated)	-13	-16	-3	-15	.	i	3	5

(listing goes on)
SMILES	PABP polyA inh	eIF4H inh	CSC inhib	HIV Env fusion	Yeast UUG start	Rce1 inhib	MT1-MMP act inh	MT1-MMP act inh RFP	others
Cc1cc(NC(=O)CCC(=O)N(Cc2ccco2)C2(C(=O)NC3CCCCC3)CCCCC2)no1	0	0	.	17	19	i	-6	-4
COc1ccc(-c2nnc(NC(=O)c3ccco3)s2)cc1	-12	6	15	-52	-31	i	13	-4
CNS(=O)(=O)c1cccc(C(=O)OCC(=O)NC2CCCC(C)C2C)c1 (configuration not stated)	.	.	6	.	-5	.	2	2
Cc1ccc(S(C)(=O)=NS(=O)(=O)c2cccc3nsnc23)cc1 (configuration not stated)	6	-7	-10	5	.	i	3	3
N#C/C(=C/c1ccc(OCc2ccc(C(=O)O)cc2)cc1)C(=O)Nc1ccccc1	51*	21	-11	.	-7	i	-4	0	eIF4H inh retest=26;PABP polyA inh retest=97*
Cn1c(=O)oc2cc(S(=O)(=O)NCCC(=O)NCCc3ccccc3)ccc21	13	-4	-3	.	-4	i	0	2
CC(C)(C)c1ccc(-c2cn(-c3ccc(Br)cc3)c3[n+]2CCCS3)cc1	3	11	.	?	.	i	-19	-35
COC(=O)c1sc(NC(=S)NC(=O)c2cccc(Br)c2)nc1C	4	-6	11	-34	-13	.	0	-1
CC(=O)c1cc(-c2ccccc2)n(CCC(=O)NC2CCCCCCC2)c1C	-14	3	-3	16	.	i	-6	-7
COc1cc(OC)c(OC)cc1NC(=O)CC1COc2ccccc2O1 (configuration not stated)	9	3	-3	-8	1	i	-4	0
O=C(Nc1cccc(Cl)c1)N1CCCC1	-7	-12	-10	-45	-12	i	4	-1
CCCOc1ccc(C2=NNC(=O)CC2)cc1	11	5	-3	7	-2	i	3	5
CC(C)(C)c1ccc(C(=O)N2CCN(CCNC(=O)C(=O)NCc3ccc(Cl)cc3)CC2)cc1	-16	-5	26	.	13	i	8	-20
CC1CCCN(CCCNC(=O)c2nn(C)c3c2CS(=O)(=O)c2ccccc2-3)C1 (configuration not stated)	-11	-6	0	-2	-11	i	-2	4
CSc1nc(SCC(=O)NCc2ccco2)c2c3c(sc2n1)COC(C)(C)C3	20	9	.	-55	-4	i	11	-8
COc1ccc2[nH]c3c4c(ccc3c2c1)C(=O)C=CC4=O	26	42	.	-388	7	.	-2	-10
CN(C)CCNC(=O)C(=O)NCC1OCCN1S(=O)(=O)c1ccc2c(c1)OCCO2 (configuration not stated)	1	12	-19	18	.	.	0	2
O=C(c1cnn2c(-c3ccccc3)cc(-c3ccccc3)nc12)N1CCN(Cc2ccccc2)CC1	.	.	16	-17	13	i	-2	-4
O=C(Nc1cc(Cl)ccc1-n1cncn1)c1ccc(Br)o1	.	.	-2	-29	.	i	-7	0
